ClpP mod – qHTS Assay for Activators of ClpP; ATP-dependent Clp protease proteolytic subunit (Bacillus subtilis (strain 168)), P80244; purified B. subtilis ClpP, FRET peptide cleavage, 20 min; Potency, µM (titrated, usually from 57.5 µM), for inactives: at the top dose activity change, negative = active; 340,000 compounds, 1.9% hits; AID 651965, 2013; active = well fitted falling curve with a large enough effect; inconclusive = small, poorly fitted or top-dose-only effect; inactive = no such curve, though single readings can be large or run the other way; also: potency is read from the fitted curve at half-maximal effect; the source files actives as falling curves though it sought activators and does not explain the sign; nearly all actives have a fitted effect of over 65% in size; many hits overshoot -100%
Target sequence (P80244 whole entry, looked up): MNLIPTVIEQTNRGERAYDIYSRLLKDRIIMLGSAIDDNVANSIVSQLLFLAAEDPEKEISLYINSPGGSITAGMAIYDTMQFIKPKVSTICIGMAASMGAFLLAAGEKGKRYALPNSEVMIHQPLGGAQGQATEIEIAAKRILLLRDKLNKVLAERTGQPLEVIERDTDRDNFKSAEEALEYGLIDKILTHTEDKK
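Buffer: 100 mM Tris/HCl pH8, 100 mM KCl, 0.05% low protease BSA, 2.5% glycerol, 0.01% Tween-20. ClpP 10 microg/mL final; 20 min RT; delta FRET normalized to ADEP and DMSO controls.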
gsp ag – gsp mutant agonism; gsp mutant cells, cAMP HTRF, 30 min; control for the full effect not named in the record; Potency, µM (doses to about 76.9 µM), inactives show top-dose activation (cAMP increase), hits mostly activators; 340,000 compounds, 0.13% hits; active = well fitted activation curve with a large enough effect; inconclusive = small, poorly fitted or top-dose-only effect, or another doubt; inactive = no such curve, though single readings can be large or run the other way; cell line not stated here;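 also: phosphodiesterase inhibitor Ro 20-1724 added with compounds to block cAMP breakdown; potency is read from the fitted curve at half-maximal effect; nearly all actives have a fitted effect of over 60% in size; about a fifth of the inactives were tested at one dose only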
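Cells in DMEM/10% FBS with G418 were pretreated with compounds in DMSO plus […] (300 uM stock) for 30 min at 37C. cAMP was measured by HTRF (cAMP-d2 plus anti-cAMP antibody-K) after 30 min at room temperature.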
TRPML1 inh – human mucolipin-1 channel inhibition | TRPML1-inducible cells, Ca2+ dye fluorescence, FDSS; hits give low values; inhibition of EC80 agonist-evoked calcium signal | 390,000 compounds, 0.02% hits | AID 624415 | activity change, negative = inhibition, % (concentration not given with the values) | Q9GZU1; in the data active means activity change below about -50%; inconclusive means about -30% to -50%; inactive means above about -30%;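 also: stimulus is agonist 54-4 at its EC80 concentration; % is scaled to controls: 0 for no effect and ±100 for the full control effect; the text of the record puts the active cut at -80%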
Target sequence (Q9GZU1 whole entry, looked up): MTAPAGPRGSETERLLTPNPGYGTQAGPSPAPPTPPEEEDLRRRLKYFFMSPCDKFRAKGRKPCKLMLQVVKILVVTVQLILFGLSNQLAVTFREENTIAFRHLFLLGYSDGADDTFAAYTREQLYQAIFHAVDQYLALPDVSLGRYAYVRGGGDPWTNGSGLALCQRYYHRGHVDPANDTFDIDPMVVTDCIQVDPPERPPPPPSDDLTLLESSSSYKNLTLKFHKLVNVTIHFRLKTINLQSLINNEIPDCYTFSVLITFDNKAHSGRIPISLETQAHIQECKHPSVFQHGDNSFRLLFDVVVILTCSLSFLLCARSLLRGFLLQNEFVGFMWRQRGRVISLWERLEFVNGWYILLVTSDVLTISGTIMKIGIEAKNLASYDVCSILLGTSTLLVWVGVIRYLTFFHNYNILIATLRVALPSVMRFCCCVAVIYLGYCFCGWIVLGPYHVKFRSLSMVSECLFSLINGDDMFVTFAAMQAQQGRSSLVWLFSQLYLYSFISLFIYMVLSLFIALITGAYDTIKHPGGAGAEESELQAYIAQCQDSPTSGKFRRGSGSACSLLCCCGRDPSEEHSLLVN
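Calcium fluorescence in TRPML1-DL cells induced overnight with Tet: a 110 s read after compound pin addition, then a 110 s antagonist read after challenge with 54-4 at 4 uM final (EC80).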
Sfp inh – Sfp phosphopantetheinyl transferase inhibition. Biochemical Sfp PPTase activity, qHTS. Potency, µM, for inactives: max response, negative = inhibition, usual class: inhibitors. 310,000 compounds, 3.5% hits. Q9F4F7; active = well fitted inhibition curve with a large enough effect; inconclusive = small, poorly fitted or top-dose-only effect, or another doubt; inactive = no such curve, though single readings can be large or run the other way;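 also: the enzyme is Sfp with the accession as filed and its product quenches rhodamine fluorescence; potency is read from the fitted curve at half-maximal effect; 0% = enzyme reaction without inhibitor and -100% = no enzyme wells; top concentration of the series not given in the record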
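Buffer: 50 mM Hepes-Na pH 7.6, 10 mM MgCl2, 0.01% Nonidet P-40, 0.01% BSA. Enzyme 15 nM, pre-exposed to compound 15 min; substrates then added and fluorescence change tracked over 30 min.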
gsp antag – gsp mutant antagonism; gsp-mutant cells, cAMP HTRF, 30 min; control for the full effect not named in the record; Potency, µM (doses to about 76.9 µM), for inactives: top-dose activity change, negative = inhibition, actives largely listed as inhibitors; 340,000 compounds, 0.4% hits; AID 624288; active = falling curve of any shape with a large fitted effect; inconclusive = falling curve, mostly with a smaller effect; inactive = flat or rising curve; cell line not stated here;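 also: intracellular cAMP measured with PDE inhibitor Ro 20-1724 present during compound exposure; potency is read from the fitted curve at half-maximal effect; % is scaled to controls: 0 for no effect and ±100 for the full control effect; nearly all actives have a fitted effect of over 65% in size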
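Cells, 2000/well, grown 16–24 h in DMEM 10% FBS with 0.5 mg/ml G418, then compounds plus […] (300 uM addition stock), 30 min at 37C. cAMP read by HTRF (cAMP-d2 and anti-cAMP antibody-K in lysis buffer) after 30 min RT.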
TRPV1 PAM – potentiators of human vanilloid receptor 1 (TRPV1) | Q8NER1 | TRPV1-expressing cells, Fluo-8 calcium influx, capsaicin EC20 potentiation; host cell line not named in the record; control for the full effect not named in the record | potentiation, % at 8.33 µM | 320,000 compounds, 0.02% hits | AID 540277; active means potentiation above 80%; inconclusive means 30% to 80%; inactive means below 30%; also: 0% is about no effect
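Fluo-8 calcium influx in TRPV1-expressing cells, kinetic read (ex 480/em 520 nm). Compound added and read 3 min for agonist activity, followed by capsaicin at EC20 final and 2 min further read for enhancement.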
Menin MLL FP FL – menin-MLL binding inhibition, fluorescein peptide | FP activity change, % at 61.4 µM | AID 1766 | 290,000 tested, under 10 active | Fluorescence polarization, fluorescein-MLL peptide displacement from menin; inconclusive = falling polarisation curve, or a change in total fluorescence; inactive = total fluorescence flat and polarisation flat or rising; no compound was filed as active; the % refers to the polarisation; negative = inhibition;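 also: % of control where 0% means no effect; inhibitors lower the polarisation; unlabelled MLL peptide was the positive control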
The depositor's hits bear a star; ? = inconclusive; . = no result given; & = joins results of further samples; [ ] = dose if it differs, or a comment. This is a random part of the collection (roughly 4.9% active in at least one column).

SMILES	TRPML1 inh	gsp ag	Sfp inh	gsp antag	ClpP mod	Menin MLL FP FL	TRPV1 PAM
CCc1ccc(N(CC(=O)N2CCOCC2)S(C)(=O)=O)cc1	-1	3%[15.4 µM]	11%	-1%	0.6%	-0.7	14
CCCn1c(SCCC(=O)O)nc2ccccc21	6	0%[15.4 µM]	15%	-45%	-3.1%	-3.1	2
COc1ccc2[nH]cc(CCNC(=O)Nc3ccccc3C)c2c1	-3&-11	1%	4%	2%	-22%	-0.7	-5
COc1ccccc1N1CCN(C(=O)CSc2nnc(NC(=O)C(C)C)s2)CC1	-15	0%[15.4 µM]	13%	-1%	-0.5%	-10	8
Cc1noc(C)c1S(=O)(=O)Nc1ccc2c(c1)C(=O)N([C@H](C)CO)C[C@H](C)[C@@H](CN(C)C(=O)Nc1ccccc1)O2	-7	.	.	2%	-7.3%	.	.
COc1ccc(C(=O)Nc2ccc(NC(C)=O)cc2)cc1S(=O)(=O)N1CCCC1	-6	2%	.	0%	-1.1%	.	-13
CCOc1ccc(NS(=O)(=O)c2ccc(C(=O)N(C)CC(=O)Nc3ccc(C)cc3)cc2)cc1	9	-1%[15.4 µM]	.	-11%	0.9%	.	-3
CC(C)NC(=O)N(C)C[C@H]1Oc2cc(Br)ccc2S(=O)(=O)N([C@H](C)CO)C[C@H]1C	6	-78%[inhibitor]	.	.	-0.4%	.	.
Cc1oc(-c2cccs2)nc1CS(=O)CC(=O)NCCCN1CC(C)CC(C)C1 (configuration not stated)	7	?	7%	3%	1.2%	-2.1	-10
O=[N+]([O-])c1ccc(O)c(C=Nc2cccc3ccccc23)c1	-4	-22%	7%	2%	.	-3.0	12
O=C(CCc1cn(Cc2ccc(F)cc2)c2ccccc12)N1CCOCC1	20	32%	6%	2%	-1.3%	-1.8	-4
CC(=O)c1cccc(OCc2cc(C(=O)N(C)Cc3nccs3)no2)c1	-5	-46%[inhibitor]	.	.	-0.7%	.	.
N#Cc1ccccc1OCC(=O)OCC(=O)Nc1ccc2c(c1)OCO2	-1	-13%	.	11%	-0.9%	.	-32
CCCCN1C(=O)Nc2ccccc2S1(=O)=O	38	?	34%[activator]	-9%	0.6%	3.9	-15
CCOC(=O)c1c(C)n(CC)c2c1cc(O)c1ccccc12	-4	-8%[15.4 µM]	18%	-7%	0.2%	-4.5	13
CCOc1ccc(S(=O)(=O)N(C)c2ccc(OCC(=O)NCc3cccnc3)cc2)cc1	13	-3%[15.4 µM]	20%	.	.	-4.5	-5
CSc1nc2ccc(NS(=O)(=O)c3ccc4c(c3)OCCO4)cc2s1	16	-16%	7%	-15%	-2.9%	0.0	3
Cc1ncsc1CCSc1n[nH]c(=O)n1-c1ccccc1	-5	-14%	-4%	-5%	-1.1%	-0.1	19
CCOC(=O)c1[nH]nc2c1C(=O)N(Cc1ccccc1)C2=O	7	-8%	18%	-20%	-4.3%	1.7	16
NC(=O)[C@@H]1CC2(CC(c3cccc(NC(=O)CC(c4ccccc4)c4ccccc4)c3)=NO2)CN1C(=O)c1ccc(Cl)cc1 (some centres not stated)	2	14%	20%	3%	-8.7%	13	-7
C=CCNC(=S)NNc1nc2sc3c(c2c(=O)[nH]1)CC(C)(C)OC3	3	?	7.1µM*	3%	.	-1.7	2
COc1cc(NC(=O)CN2C(=O)CN(C)C2=O)c(C)cc1[N+](=O)[O-]	2	-15%[15.4 µM]	13%	0%	.	2.8	-4
COc1cccc(CN(C)C(=O)c2cc(COc3c(F)cccc3F)on2)c1	6	19%	-15%	5%	.	5.9	-10
Cc1ccc(NC(=O)Cn2sc3ccccc3c2=O)cc1	-9	4%	.	.	-1.9%	.	.
CC1(C)CC(=O)C2=C(C1)N(Cc1cccnc1)C(=O)C2(NC(=O)c1cccnc1)C(F)(F)F (configuration not stated)	5	-40%[inhibitor]	32%[activator]	19%	0.1%	1.6	-8
CCc1nnc(NC(=O)CCC(=O)NCCc2ccc(OC)c(OC)c2)s1	9	6%	15%	-6%	-1.1%	0.3	-10
O=C(CNC(=O)c1ccccc1)OCC(=O)c1cccs1	-8	-29%	23%	-14%	.	3.7	11
O=C(C[n+]1ccc(C(=O)N/N=C/c2ccc(Cl)cc2Cl)cc1)c1ccccc1	1	?	-9%	8%	0.4%	3.9	16
O=C(C1CCCN(S(=O)(=O)c2ccc(Br)s2)C1)N1CCN(c2ccccc2)CC1 (configuration not stated)	34&25	-10%[15.4 µM]	8%	-17%	2.2%	-0.4	?
CCCC(C(=O)NCc1ccco1)N(C(=O)CNS(=O)(=O)c1ccc(Cl)cc1)C1CCCC1 (configuration not stated)	11	-47%[inhibitor]	0%	-4%	3.1%	0.2	-12
COC(=O)c1cc2c(ccn2-c2ccc(F)cc2)n1Cc1ccc(OC(C)=O)cc1	9	22%	16%	-6%	28µM*	-0.7	-13
Cc1ccc(C2OC34CCCCCC3C(C#N)(C(=N)O4)C2(C#N)C#N)cc1 (configuration not stated)	8	-14%[15.4 µM]	-13%	-26%	1.2%	-4.0	3
C/C=C(\C)C(=O)N1CC2(CC(c3cccc(NC(=O)CCCCC)c3)=NO2)C[C@@H]1C(N)=O (some centres not stated)	-5	8%	7%	9%	-0.3%	-0.5	15
CCC(C)NC(=O)c1ccc(C2SCC(=O)N2Cc2ccccc2)cc1 (configuration not stated)	4	-10%[15.4 µM]	7%	8%	.	-2.8	-10
c1cncc(-c2nc(-c3ccco3)cs2)c1	-1	19%	7.9µM*	14%	-9.7%	?	-10
COCCN(C(=O)CSc1nc2nc(C)cc(C)n2n1)c1c(N)n(Cc2ccccc2)c(=O)[nH]c1=O	5	2%[15.4 µM]	4%	.	.	2.1	4
Cc1c(C(=O)N2CCOCC2)sc(NC(=O)C(C)C)c1C#N	56	-13%	18%	10%	.	3.2	0
N#CCSCC(=O)Nc1ccc(Cl)cc1	-14	8%	4%	5%	1.4%	-2.7	0
O=C(Cn1nnc(-c2ccccc2)n1)c1ccccc1	-11	-32%[inhibitor]	10%	0%	0.5%	1.5	-3
COc1ccc(-c2nnc(C(C)Nc3cccc(C(=O)NC4CC4)c3)o2)cc1 (configuration not stated)	-8	-1%[15.4 µM]	.	0%	-0.3%	.	.
O=C(NCC(=O)N(c1cccc(F)c1)C(C(=O)NC1CCCC1)c1ccncc1)c1cccs1 (configuration not stated)	18	-8%[15.4 µM]	16%	-1%	0.5%	1.3	24
COc1ccc(CN(C)C(=O)C2CSC3(C)CCC(=O)N23)cc1OC (configuration not stated)	12	1%	.	9%	-0.5%	.	-2
COC(=O)c1ccc(NC(=O)c2cccc(N3C(=O)CCC3=O)c2)cc1	-12	-5%[15.4 µM]	.	4%	.	.	-2
CCOC(=O)CC(=O)CSc1nc(CC)c(C)cc1C#N	-3	4%[15.4 µM]	1%	-4%	.	6.8	4
Cc1cnc(C(=O)OCC(=O)Nc2ccc(C)c(S(=O)(=O)N3CCCCC3)c2)cn1	25	0%	7%	1%	.	3.6	-1
CC1(C)CC(=O)C(C(C2=C(O)CC(C)(C)CC2=O)c2ccc(Br)s2)C(=O)C1 (configuration not stated)	-6	?	20µM*	-25%	0.6%	5.0	?
COC(=O)c1c(C)oc2c1cc(NS(=O)(=O)c1ccc(C(=O)O)cc1)c1ccccc12	0	22%	-19%	-14%	0.3%	2.5	29
O=C(NCc1c[nH]c2ccccc12)c1ccccc1	-29	-17%	.	-4%	.	.	.
CCC(C)[C@H](N)c1nnc(SCc2cccc(F)c2)o1 (some centres not stated)	68	-2%	-1%	15%	-2.3%	2.7	7
COc1ccccc1N(C)S(=O)(=O)c1ccc(C(=O)Nc2cc(OC)c(OC)c(OC)c2)cc1	-2	8%	.	?	-0.2%	.	.
N#Cc1c(NC(=O)c2ccccc2)sc2c1CCC2	8	24%	?	-9%	-18%	11	14
O=C(Nc1ccccc1OC(F)F)c1ccc(-n2cncn2)c([N+](=O)[O-])c1	-30	13%[15.4 µM]	.	-7%	-2.9%	.	20
COc1cc(NC(=O)c2cc3sccc3n2C)cc(OC)c1	18	11%	50µM*	-24%	-2.5%	-1.0	-7
CCOc1ccc(CCNC(=O)COC(=O)c2cc(OC)c(OC)c(OC)c2)cc1OCC	.	.	1%	.	.	0.7	12
Cc1ccccc1NC(=O)CSc1nc(N2CCCCC2)nc(N2CCCCC2)n1	2	?	17%	1%	0.6%	-0.2	-1
CCc1nc(-c2ccc(OC)c(OC)c2)cc2cc(OC)c(OC)cc12	3	-3%[15.4 µM]	14%	-7%	0.7%	7.3	0
COc1cc2c(cc1OC)C(c1cc3cc4c(cc3[nH]c1=O)OCO4)N(C(=O)C(C)C)CC2 (configuration not stated)	20	-25%	-4%	1%	?	2.2	-8
CCCN(CCC)CCNC(=O)C1c2ccccc2C(=O)N2CCc3ccccc3C12 (configuration not stated)	4	10%	20%	0%	-4.2%	1.1	-7
CCn1c(NC(=O)c2cccs2)nc2ccccc21	25	10%	8%	0%	-2.8%	-1.2	-6

Screening results from PubChem.
